# Bioassay records from PubChem.
# Arbovirus anti: antivirals against arbovirus infection, primary screen, cell-based, full library, 10K replicate subset. arbovirus infection cell-based antiviral screen. inhibition, % at 10 µM. hit rate 0.37% among 200,000. AID 1251, 2008;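 active = inhibition from about 30%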;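 also: bluetongue infection of BSR cells; cell survival read as ATP light after 72 h; 0% = infected wells without compound and 100% = uninfected wells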
# RecA splice inh: Mtb RecA intein splicing inhibitors, primary screen, biochemical, fluorescence, HTS. hit rate 0.75% among 290,000. inhibition, %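 (about 9 µM by stock and volumes)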. AID 2221, 2009. Protein RecA (Mycobacterium tuberculosis (strain ATCC 25618 / H37Rv)), P9WHJ3. cell-free RecA intein splicing; in the data active = inhibition above about 30%; inconclusive = no clear call, values can overlap the other calls;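 also: 0% = vehicle wells and 100% = reference inhibitor control wells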
# Target sequence (P9WHJ3 whole entry, looked up, canonical isoform): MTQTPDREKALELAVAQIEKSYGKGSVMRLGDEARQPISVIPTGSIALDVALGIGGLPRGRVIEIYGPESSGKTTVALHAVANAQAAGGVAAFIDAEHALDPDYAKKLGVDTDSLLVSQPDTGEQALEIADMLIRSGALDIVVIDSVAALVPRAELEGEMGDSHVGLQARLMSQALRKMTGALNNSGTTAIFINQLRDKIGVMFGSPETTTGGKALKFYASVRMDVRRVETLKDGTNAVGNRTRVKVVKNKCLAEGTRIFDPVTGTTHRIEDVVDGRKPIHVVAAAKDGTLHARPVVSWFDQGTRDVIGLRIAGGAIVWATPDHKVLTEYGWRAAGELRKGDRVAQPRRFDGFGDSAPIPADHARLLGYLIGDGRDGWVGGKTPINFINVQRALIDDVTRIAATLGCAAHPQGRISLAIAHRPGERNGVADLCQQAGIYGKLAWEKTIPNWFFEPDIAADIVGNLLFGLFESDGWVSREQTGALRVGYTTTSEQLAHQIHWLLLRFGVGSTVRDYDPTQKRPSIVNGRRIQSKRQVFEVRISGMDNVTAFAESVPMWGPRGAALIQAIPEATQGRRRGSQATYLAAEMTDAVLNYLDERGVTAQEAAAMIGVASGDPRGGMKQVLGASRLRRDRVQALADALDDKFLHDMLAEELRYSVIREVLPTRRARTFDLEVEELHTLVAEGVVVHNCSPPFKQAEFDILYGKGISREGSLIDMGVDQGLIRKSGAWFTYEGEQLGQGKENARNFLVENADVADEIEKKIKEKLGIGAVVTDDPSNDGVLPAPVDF
# Mtb betalactam: beta-lactam sensitization of Mtb H37Rv, H37Rv. M. tuberculosis H37Rv growth with meropenem, percent inhibition; hits of this screen are not shown here. hit rate 0.27% among 330,000. AID 434955, 2010. inhibition, % at 25 µM;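 active = about 74% or more and at least 40 points above the plate without the antibiotic, then above 30% in a dose series; inconclusive = first-round hits that could not be retested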;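 also: growth measured after seven days incubation then overnight dye step; 0% = bacteria only wells and 100% = bacteria with antibiotic; twin plates without the antibiotic show which effects depend on it; some results filed as inactive read as strong as hits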
# Mtb H37Rv: M. tuberculosis H37Rv growth inhibitors, H37Rv strain (AID 1626). hit rate 0.95% among 220,000. M. tuberculosis H37Rv growth inhibition; higher % means a stronger effect. inhibition, % at 10 µM, or IC50 in µM where a hit was titrated;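 active = confirmed in a dose series; inconclusive = inhibition above 80% but not taken into the dose series; inactive = below 80% or under 30% at every dose of the series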;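 also: bacteria incubated seven days before Alamar blue readout; 0% = bacteria only wells and 100% = bacteria with antibiotic wells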
# YopH PTP inh: YopH tyrosine phosphatase inhibitors, primary screen, biochemical, fluorescence Ex485/Em525; inhibition, %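 (about 10 µM by stock and volumes)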; hit rate 0.16% among 140,000;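 active = inhibition of 50% or more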;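 also: controls were vehicle for no effect and minimum signal wells for full effect; inactives centre near -20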
# Arbovirus anti repeat: further read-out of Arbovirus anti, marked with its call; inhibition, %; measured here: 10K subset replicate screen; many hits read low in the repeat;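 first of two repeat runs on a subset; 0% = infected and 100% = uninfected wells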
# * hit, by the source's call; i = inactive; ? = inconclusive; . = no result given. Not all compounds are listed (hit frequency here may not be typical).
SMILES,Arbovirus anti,RecA splice inh,Mtb betalactam,Mtb H37Rv,YopH PTP inh,others
Cc1ccccc1-c1nc(CS(=O)(=O)CC(=O)NC2CCCC2)c(C)o1,.,1.7,-5,.,.,
COc1cccc(NC(=O)c2oc3ccccc3c2NC(=O)c2ccc3c(c2)OCO3)c1,-8,1.8,-22,6%,5,
COc1cc(/C=C/C(=O)N(C)c2ccccc2C(=O)O)cc(OC)c1OC,9,4.1,8,0%,-11,
Cc1cccc2c1[nH]c1nc(N/N=C\c3ccco3)nnc12,4,-1.8,?,.,-35,
COc1ccccc1N1CCN(c2nnc(-c3ccc(F)cc3)c3ccccc23)CC1,3,2.1,33,0%,-29,
COc1ccccc1NC(=O)NNC(=O)C(C)Oc1ccc2ccccc2c1 (stereo not given),.,2.2,-1,.,.,
COCCC1CCCCN1Cc1cn(-c2ccccc2)nc1-c1ccc2c(c1)OCO2 (stereo not given),-4,-0.3,-7,4%,.,
CCOP(=O)(OCC)c1nc(-c2cccc3ccccc23)oc1NCCc1ccc(OC)cc1,-30,-2.0,5,12%,-10,
O=S1(=O)N=C(N2CCOCC2)c2ccccc21,0,0.8,-11,2%,-38,
C=CCNC(=O)NC(=S)c1ccccc1,2,1.2,-4,0%,-8,
O=C(c1cc2cc([N+](=O)[O-])ccc2oc1=O)N1CCOCC1,-1,0.8,-12,-5%,.,
Cc1ccc(CCNC(=O)CN2C(=O)COc3ccc(S(=O)(=O)N4CCC(C)CC4)cc32)cc1,.,-0.6,-3,.,.,
COc1ccc(CCN2C(=O)CS/C2=N\NC(=O)c2ccc(C(C)(C)C)cc2)cc1OC,-17,1.2,-7,5%,-12,
Cc1cc([N+](=O)[O-])ccc1NC(=O)Nc1ccc(F)cc1F,-9,1.5,-4,66%,.,
O=C1CCC(=O)N1c1ccc(S(=O)(=O)N2CCCC2)cc1,2,-2.2,-1,0%,.,
Cc1ccc(N2CC(C(=O)N3CCOCC3)CC2=O)cc1Cl (stereo not given),.,-2.8,-4,.,.,
Cc1ccc(NS(=O)(=O)c2ccc(C(=O)NNC(=O)c3ccccc3O)cc2)cc1,.,17,6,.,.,
Cc1cccc(C2NC(=O)c3c(sc(C)c3C)N2)c1O (stereo not given),6,-11,1,9%,-14,
Cn1cccc1/C=C1\C(=O)NC(=O)N(CCC2=CCCCC2)C1=O,-8,1.6,.,43%,-26,
COc1ccc2[nH]c3c(=O)n(CCCCC(=O)NCCC(C)C)c(=S)[nH]c3c2c1,9,3.9,2,5%,.,
CCOC(=O)c1sc2nc(C)nc(NCc3cccnc3)c2c1C,2,0.7,-1,2%,.,
COc1ccc(CN2CCCC(C(=O)N3CCc4ccccc4C3)C2)cc1OC (stereo not given),.,-0.8,-6,.,.,
CC1=NN(c2ccc([N+](=O)[O-])cc2)C(=O)/C1=C\N(C)C,0,1.9,-4,57%,-9,
CCCCn1c(SCC(=O)OCC)nc2c1c(=O)[nH]c(=O)n2C,2,1.6,0,-5%,-22,Arbovirus anti repeat=8

# Fetched by compound from the list above, 2 records:
SMILES,Arbovirus anti,RecA splice inh,Mtb betalactam,Mtb H37Rv,YopH PTP inh,others
COc1ccc(CN2CCCC(C(=O)N3CCc4ccccc4C3)C2)cc1OC (stereo not given),.,-0.8,-6,.,.,
O=C1CCC(=O)N1c1ccc(S(=O)(=O)N2CCCC2)cc1,2,-2.2,-1,0%,.,

# More structures:
SMILES,Arbovirus anti,RecA splice inh,Mtb betalactam,Mtb H37Rv,YopH PTP inh,others
CCC(NC(=S)Nc1ccccc1)C(=O)O (stereo not given),-4,8.6,7,-5%,-20,
CCc1nnc(NS(=O)(=O)c2ccc(NC(=S)NC(=O)/C=C/c3ccc(C(C)C)cc3)cc2)s1,4,36*,4,4%,-25,
O=C(CSc1nnc2c(Cl)cc(C(F)(F)F)cn12)Nc1ccc2c(c1)OCO2,-1,2.2,-2,-11%,-44,
CCC(=O)N/C(=N/c1nc(C)cc(C)n1)Nc1ccc(OC)cc1,-3,-4.0,3,3%,-13,
COCCCNC(=S)N(CCN(C)C)Cc1cc2cc3c(cc2[nH]c1=O)OCCO3,.,-6.2,1,.,.,
Nc1nc2c(F)cccc2s1,-16,1.6,-2,-2%,-10,
CC1(C)CC(=O)C2=C(C1)OC(N)=C(C#N)C21C(=O)N(Cc2ccccc2Cl)c2ccccc21 (stereo not given),2,1.4,1,2%,-16,
Cc1cc(C)nc(-n2nc(C)cc2NC(=O)c2cc3ccccc3oc2=O)n1,.,-1.8,-6,.,.,
COc1cccc(C(=O)NC2(C(F)(F)F)N=C3SCCN3C2=O)c1 (stereo not given),5,-3.5,-3,-3%,-28,
N=C(N)c1c(O)n(C2CCCCC2)c(=O)n(C2CCCCC2)c1=O,-22,-1.7,85,31%,-19,
Cc1ccc2nc3c(cc(C(=O)NC4CCCCC4)c(=N)n3C3CCCCC3)c(=O)n2c1,.,i,-4,.,.,
Cc1cc(=O)oc(C)c1C(=O)NCCc1ccc(F)cc1,0,-2.5,-7,6%,-6,
CCc1ccc(OCC(O)CN2CCN(c3ccc(OC)cc3)CC2)cc1 (stereo not given),.,1.9,3,.,.,
Cc1ccc([N+](=O)[O-])cc1NC(=O)Nc1ccc(S(N)(=O)=O)cc1,.,1.4,0,-1%,.,
O=C(Nc1ccccc1C(=O)N1CCCCCC1)c1ccc(Cl)cc1,-10,-4.2,-1,1%,.,
Oc1cccc(Nc2ncnc3ccccc23)c1,3,2.9,2,-12%,-11,
COc1ccccc1-n1c2nc3ccccc3nc2c2c(=O)n(-c3cc(C)cc(C)c3)cnc21,4,5.4,12,25%,-38,
O=C(NCC(=O)N1CCN(S(=O)(=O)/C=C/c2ccccc2)CC1)c1ccc(Cl)cc1,.,-3.0,-6,-4%,.,
Cc1ccc(S(=O)(=O)CC(CN2CCOCC2)N2CCOCC2)cc1 (stereo not given),12,-6.7,-5,0%,.,
Cc1nc2c(C)cccn2c(=O)c1NC(=O)c1cccc2ccccc12,.,-0.7,-5,.,.,
COc1ccc(C(=O)Nc2ncccc2C)cc1S(=O)(=O)N1CCCc2ccccc21,.,1.6,-8,.,.,
Cc1cccc(NC2=C/C(=N/S(=O)(=O)c3cccs3)c3ccccc3C2=O)c1,-19,.,4,2%,1,
CC(C)OC(=O)c1cccnc1N1CCN(c2cccc(Cl)c2)CC1,22,13,8,5%,.,
O=C(Cn1ccc2ccccc2c1=O)NCCC(=O)N1CCN(c2cccc(C(F)(F)F)c2)CC1,7,-0.9,-1,-7%,-7,
O=S(=O)(Cc1ccc(Cl)cc1)N1CCN(Cc2ccc3c(c2)OCO3)CC1,.,-0.6,2,-10%,.,
Cn1nnnc1Sc1ncnc2scc(-c3ccccc3)c12,-5,4.1,.,-11%,-25,
COc1ccccc1NC(=O)CSc1nnc(Cn2c(=O)sc3ccccc32)n1C,3,-1.1,3,.,-37,Arbovirus anti repeat=-7
Cc1ccc(NC(=O)c2cc([N+](=O)[O-])ccc2NCc2cccnc2)cc1Cl,-4,-1.0,10,9%,-37,
COc1ccccc1CCc1nnc(N)s1,.,-1.1,-2,.,.,
C#CCOCCOCCOCCNc1nc(N2CCN(C(=O)[C@H]([C@@H](C)CC)n3cc(CCCN=C(N)N)nn3)CC2)nc(N2CCN(C(=O)[C@H]([C@@H](C)CC)n3cc(CCCN=C(N)N)nn3)CC2)n1,10,3.9,.,2%,-12,
NS(=O)(=O)c1ccc(CCNC(=O)CN2CCN(c3ccccc3O)CC2)cc1,-1,-2.8,-14,-6%,-29,
O=C(NC1CCCCC1)C(c1ccccc1)N(C(=O)Cc1ccsc1)c1ccccc1 (stereo not given),7,-2.0,3,-9%,-24,
COc1ccc(NC(=O)NCc2cccnc2)cc1OC,-3,-2.1,8,-12%,-30,
CCN(CC)S(=O)(=O)c1ccc2[nH]cc(C(=O)NCCCN3CCCCC3C)c(=O)c2c1 (stereo not given),-8,0.2,9,3%,-24,
Cc1csc(=O)n1CC(=O)OCC(=O)Nc1ccc(Cl)cc1F,.,-1.9,3,.,.,
CC(NC(=O)OCc1ccccc1)C(=O)Oc1cc2oc(=O)cc(-c3ccccc3)c2cc1Cl (stereo not given),-23,-63,-7,-2%,-37,
C=C1C2(C(=O)NCc3ccco3)CCC(C2)C1(C)C (stereo not given),5,-2.2,-6,2%,-20,
O=C1C=CN(C(=O)Oc2ccccc2)CC1,0,-1.4,0,5%,-31,
CCCn1c(NC(=O)C2CCN(S(=O)(=O)c3cccs3)CC2)nc2ccccc21,-23,7.0,29,?,-16,
CCNc1nc(NC(C)C)nc(OCCNS(=O)(=O)c2cc(C)ccc2C)n1,4,5.4,-3,-2%,-35,
CCc1ccc(CNC(=O)C2CCN(S(=O)(=O)N3CCCC3)CC2)cc1,.,-1.7,6,.,.,
Cc1ccc(S(=O)(=O)N2CCCC2C(=O)NCc2ccccc2F)cc1 (stereo not given),.,-0.6,-38,.,.,
Cc1nc(NC(=O)c2ccc([N+](=O)[O-])cc2Cl)sc1C(=O)N(C)C,6,1.1,8,1%,-3,
CCN(Cc1ccccc1)C(=O)CSc1nncn1C,0,-4.8,-7,6%,.,
CN(CC(=O)Nc1ccccc1F)CC(=O)Nc1ccccc1Br,22,2.4,-13,0%,.,
CCCn1c(C)cc(=O)c2cc(NC(=O)c3cnccn3)ccc21,-1,-0.7,31,2%,-40,
CCC(C(=O)OCC(=O)NC(=O)c1ccccc1OC)c1ccccc1 (stereo not given),.,1.5,-9,.,.,
CNc1cc(N2CCNCC2)ccc1[N+](=O)[O-],2,-1.4,-3,-2%,.,
COc1cc(-c2onc3ccc(Br)cc23)cc(OC)c1OC,-23,-3.5,11,2%,.,
Cc1c(C=O)c2ccccc2n1Cc1ccc(F)cc1,4,2.9,2,-2%,.,
CN(C)/C=C/C1=CC(=O)CC(C)(C)C1,4,-8.9,-6,-3%,.,
Cc1ccc(S(=O)(=O)N2CCN(C(=O)CCC(=O)N3CCc4ccccc43)CC2)cc1,-7,-2.5,-1,-15%,.,Arbovirus anti repeat=-6
COC(=O)[C@@H](NC(=O)N1CCC(Cc2ccccc2)CC1)C(C)C,.,8.4,3,.,.,
O=C(CSCc1c(F)cccc1F)Nc1ccccc1,.,0.0,49,.,.,
O=C(CCN1C(=O)/C(=C/c2ccccc2)SC1=S)N[C@@H](CO)Cc1ccccc1,.,0.6,4,.,.,
CC1=C(C(=O)OCCCCCl)C(c2cc3c(cc2Br)OCO3)NC(=O)N1 (stereo not given),.,-0.6,-1,.,.,
COc1ccc(OC)c(S(=O)(=O)Nc2cc3c(cc2N2CCCC2)n(C)c(=O)c(=O)n3C)c1,.,-5.0,7,.,.,
COc1ccc(-c2c(C)oc3c(CN4CCOCC4)c(O)ccc3c2=O)cc1OC,.,-0.6,0,.,.,
Cc1cccc(N2CCN(C(=O)C3CCCN(S(=O)(=O)c4c(C)noc4C)C3)CC2)c1C (stereo not given),.,6.5,3,10%,-20,
CCOC(=O)c1c(NC(=O)CSc2nnc(Cc3csc(N)n3)n2C)sc(C)c1C,-4,3.9,20,2%,-20,

# Entries shown so far with a thiophene ring, fused or not, in the order listed:
SMILES,Arbovirus anti,RecA splice inh,Mtb betalactam,Mtb H37Rv,YopH PTP inh,others
Cc1cccc(C2NC(=O)c3c(sc(C)c3C)N2)c1O (stereo not given),6,-11,1,9%,-14,
CCOC(=O)c1sc2nc(C)nc(NCc3cccnc3)c2c1C,2,0.7,-1,2%,.,
Cc1cccc(NC2=C/C(=N/S(=O)(=O)c3cccs3)c3ccccc3C2=O)c1,-19,.,4,2%,1,
Cn1nnnc1Sc1ncnc2scc(-c3ccccc3)c12,-5,4.1,.,-11%,-25,
O=C(NC1CCCCC1)C(c1ccccc1)N(C(=O)Cc1ccsc1)c1ccccc1 (stereo not given),7,-2.0,3,-9%,-24,
CCCn1c(NC(=O)C2CCN(S(=O)(=O)c3cccs3)CC2)nc2ccccc21,-23,7.0,29,?,-16,
CCOC(=O)c1c(NC(=O)CSc2nnc(Cc3csc(N)n3)n2C)sc(C)c1C,-4,3.9,20,2%,-20,

# Carrying on.
SMILES,Arbovirus anti,RecA splice inh,Mtb betalactam,Mtb H37Rv,YopH PTP inh,others
CC1CCC2(CC1)NC(=O)N(CC(=O)NC(=O)Nc1ccc3c(c1)OCCO3)C2=O (stereo not given),.,-0.6,-6,-3%,.,
Cc1ccc2nc(NC(=O)COC(=O)c3ccncc3)sc2c1,9,-2.1,-5,-6%,.,
O=C(COC(=O)c1cc2ccccc2o1)c1ccccc1,1,1.6,90,0%,1,Arbovirus anti repeat=4
CCOc1ccc(C(C(=O)NC2CCCC2)N(CCCO)C(=O)c2ccc(-c3ccccc3)[nH]2)cc1 (stereo not given),-27,4.3,3,4%,.,
O=C(Cn1ncc(N2CCOCC2)c(Br)c1=O)c1ccc(Cl)cc1,1,1.3,0,-10%,.,
